Assay outcomes (PubChem BioAssay)
TRPV1 potentiator: potentiators of human vanilloid receptor 1 (TRPV1) | Q8NER1 | TRPV1-expressing cells, Fluo-8 calcium influx, capsaicin EC20 potentiation; host cell line not named in the record; control for the full effect not named in the record | potentiation, % at 8.33 µM | hit rate 0.02% among 320,000 | AID 540277; active means potentiation above 80%; inconclusive means 30% to 80%; inactive means below 30%; also: 0% is about no effect
Target sequence (Q8NER1 whole entry, looked up): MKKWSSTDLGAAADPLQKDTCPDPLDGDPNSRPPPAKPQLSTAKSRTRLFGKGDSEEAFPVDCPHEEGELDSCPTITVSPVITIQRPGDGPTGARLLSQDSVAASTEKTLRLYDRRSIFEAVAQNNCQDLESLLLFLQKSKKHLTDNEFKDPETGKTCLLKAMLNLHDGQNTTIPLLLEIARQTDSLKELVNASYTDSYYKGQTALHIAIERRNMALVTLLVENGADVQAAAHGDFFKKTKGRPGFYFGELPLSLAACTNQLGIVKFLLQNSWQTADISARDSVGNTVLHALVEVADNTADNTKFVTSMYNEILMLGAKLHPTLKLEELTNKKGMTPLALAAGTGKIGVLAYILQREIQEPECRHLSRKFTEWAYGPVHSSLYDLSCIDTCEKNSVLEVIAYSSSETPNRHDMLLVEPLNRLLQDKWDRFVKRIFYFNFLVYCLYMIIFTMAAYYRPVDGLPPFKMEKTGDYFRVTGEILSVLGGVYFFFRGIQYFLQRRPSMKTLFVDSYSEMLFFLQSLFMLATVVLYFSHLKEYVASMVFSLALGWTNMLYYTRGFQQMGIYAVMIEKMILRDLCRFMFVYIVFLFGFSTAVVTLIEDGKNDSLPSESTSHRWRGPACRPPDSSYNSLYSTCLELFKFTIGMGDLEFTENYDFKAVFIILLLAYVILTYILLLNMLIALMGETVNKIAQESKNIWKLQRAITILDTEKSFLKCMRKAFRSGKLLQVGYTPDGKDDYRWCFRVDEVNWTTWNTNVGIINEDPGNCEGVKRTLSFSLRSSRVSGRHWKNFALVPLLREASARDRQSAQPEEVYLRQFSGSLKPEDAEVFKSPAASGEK
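Cells expressing TRPV1 were dye-loaded with Fluo-8 and read kinetically: 10 s baseline, 3 min after compound (agonist portion), then 2 min after EC20 capsaicin (allosteric enhancer portion). Calcium-bound dye fluorescence at 480/520 nm.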
gsp antagonist: gsp mutant antagonism | hit rate 0.4% among 340,000 | AID 624288 | gsp-mutant cells, cAMP HTRF, 30 min; control for the full effect not named in the record | Potency, µM (series often up to 76.9 µM), inactives show at the highest dose activity change, negative = inhibition, actives largely listed as inhibitors; active = falling curve of any shape with a large fitted effect; inconclusive = falling curve, mostly with a smaller effect; inactive = flat or rising curve; cell line not stated here;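 also: intracellular cAMP measured with PDE inhibitor Ro 20-1724 present during compound exposure; potency is read from the fitted curve at half-maximal effect; % is scaled to controls: 0 for no effect and ±100 for the full control effect; nearly all actives have a fitted effect of over 65% in size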
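HTRF cAMP read-out (cAMP-d2 plus anti-cAMP antibody-K in lysis buffer, 30 min RT). Before lysis, cells are exposed to compounds with […] for 30 min at 37C in DPBS containing Ca/Mg, BSA and Tween 20.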
TRPML1 inh: blocks the human TRPML1 channel; TRPML1-inducible cells, Ca2+ dye fluorescence, FDSS; hits give low values; inhibition of EC80 agonist-evoked calcium signal; activity change, negative = inhibition, % (test concentration not listed); hit rate 0.02% among 390,000; AID 624415; in the data active means activity change below about -50%; inconclusive means about -30% to -50%; inactive means above about -30%;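 also: stimulus is agonist 54-4 at its EC80 concentration; % is scaled to controls: 0 for no effect and ±100 for the full control effect; compound concentration not given in the record; the text of the record puts the active cut at -80%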
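TRPML1-DL cells, Tet-induced overnight (~16 h, 37 °C) at 1,500 cells/well, were loaded with Ca8 no-wash dye plus quencher for 45-90 min at room temperature. Compounds were pinned during FDSS kinetic reading; agonist 54-4 at EC80 (4 uM final) then added.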
Sfp inh: Sfp phosphopantetheinyl transferase inhibition; Q9F4F7; Biochemical Sfp PPTase activity, qHTS; Potency, µM, for inactives: max response, negative = inhibition, most hits filed as inhibitors; hit rate 3.5% among 310,000; AID 1490; active = well fitted inhibition curve with a large enough effect; inconclusive = small, poorly fitted or top-dose-only effect, or another doubt; inactive = no such curve, though single readings can be large or run the other way;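 also: the enzyme is Sfp with the accession as filed and its product quenches rhodamine fluorescence; potency is read from the fitted curve at half-maximal effect; 0% = enzyme reaction without inhibitor and -100% = no enzyme wells; top concentration of the series not given in the record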
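After 15 min at room temperature with compound, 15 nM Sfp received 5 uM rhodamine-CoA plus 12.5 uM BHQ-2-ybbR (50 mM Hepes pH 7.6, 10 mM MgCl2). Rate came from the fluorescence difference over 30 min, ex 525/em 598 nm.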
Menin-MLL FL inh: displaces fluorescein MLL peptide from human menin; Fluorescence polarization, fluorescein-MLL peptide displacement from menin; FP activity change, % at 61.4 µM; 290,000 tested, under 10 active; inconclusive = falling polarisation curve, or a change in total fluorescence; inactive = total fluorescence flat and polarisation flat or rising; no compound was filed as active; the % refers to the polarisation; negative = inhibition;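 also: % of control where 0% means no effect; inhibitors lower the polarisation; unlabelled MLL peptide was the positive control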
ClpP mod: qHTS Assay for Activators of ClpP. ATP-dependent Clp protease proteolytic subunit (Bacillus subtilis (strain 168)), P80244. purified B. subtilis ClpP, FRET peptide cleavage, 20 min. Potency, µM (top dose mostly 57.5 µM), without a hit: top-dose activity change, negative = active. hit rate 1.9% among 340,000; active = well fitted falling curve with a large enough effect; inconclusive = small, poorly fitted or top-dose-only effect; inactive = no such curve, though single readings can be large or run the other way; also: potency is read from the fitted curve at half-maximal effect; the source files actives as falling curves though it sought activators and does not explain the sign; nearly all actives have a fitted effect of over 65% in size; many hits overshoot -100%
Target sequence (P80244 whole entry, looked up): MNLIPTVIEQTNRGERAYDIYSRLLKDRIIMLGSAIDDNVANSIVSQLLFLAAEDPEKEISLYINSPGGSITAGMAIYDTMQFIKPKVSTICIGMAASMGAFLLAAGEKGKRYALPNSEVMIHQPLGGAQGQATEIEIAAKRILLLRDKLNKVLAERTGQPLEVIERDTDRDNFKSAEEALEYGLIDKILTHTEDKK
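ClpP 10 microg/mL final, pH 8 Tris/KCl buffer with BSA, glycerol, Tween-20; compound pinned in; FRET-FV substrate; RT 20 min; Ex320/Em430; ΔFRET vs ADEP 5.8 microM, DMSO, no enzyme.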
gsp ag: activates gsp, the McCune-Albright syndrome mutation | hit rate 0.13% among 340,000 | gsp mutant cells, cAMP HTRF, 30 min; control for the full effect not named in the record | AID 624287 | Potency, µM (series often up to 76.9 µM), for the others: at the highest dose activation (cAMP increase), hits mostly activators; active = well fitted activation curve with a large enough effect; inconclusive = small, poorly fitted or top-dose-only effect, or another doubt; inactive = no such curve, though single readings can be large or run the other way; cell line not stated here;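 also: phosphodiesterase inhibitor Ro 20-1724 added with compounds to block cAMP breakdown; potency is read from the fitted curve at half-maximal effect; nearly all actives have a fitted effect of over 60% in size; about a fifth of the inactives were tested at one dose only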
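Cells in DMEM/10% FBS with G418 were pretreated with compounds in DMSO plus […] (300 uM stock) for 30 min at 37C. cAMP was measured by HTRF (cAMP-d2 plus anti-cAMP antibody-K) after 30 min at room temperature.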
Starred values were filed as active, the others as inactive; u = inconclusive; x = no result given; & = joins results of further samples; [ ] = another dose, or the depositor's remark.

SMILES	TRPV1 potentiator	gsp antagonist	TRPML1 inh	Sfp inh	Menin-MLL FL inh	ClpP mod	gsp ag
Cc1cccc2nc(Cn3c(=O)n(CCC(=O)NCc4ccco4)c(=O)c4sccc43)cc(=O)n12	-2	6%	9	18%	-0.9	-3.0%	-25%
CCc1cccc2c(C=C(C#N)C#N)cn(CC(=O)N3CCCCCC3)c12	x	-4%	-7	0%	3.2	-3.9%	u
O=C(NCc1ccco1)c1cnc2ccccn2c1=O	-4	3%	13	20%	2.0	5.4%	u
Cn1c(CN2CCCC2)nc2cc(NC(=O)Nc3ccccc3)ccc21	5	5%	7	1%	-1.6	-1.8%	-34%[inhibitor]
CSc1nc2ccc(N3C(=O)C4CCCCC4C3=O)cc2s1 (stereo not drawn)	-6	-2%	-16	15%	3.3	-1.7%	3%
COc1ccccc1/C=C\C=N\NC(=O)CCn1nnc2ccccc21	4	-2%	-2	4%	7.3	-9.1%	26%
CCOC(=O)C1CCN(C(=S)NC2CC3C=CC2C3)CC1 (stereo not drawn)	-12	-10%	-13	6%	-0.1	-0.8%	26%[15.4 µM]
COc1cccc(-c2c(NC(=O)c3ccco3)oc3ccc(Cl)cc3c2=O)c1	-4	-10%	11	18%	1.7	x	1%
C[C@@H]1CC[C@]2(C(=O)O[C@@H]3O[C@H](CO)[C@@H](O)[C@H](O)[C@H]3O)CC[C@]3(C)C(=CCC4[C@@]5(C)CC[C@H](O[C@@H]6OC[C@H](O)[C@H](O[C@@H]7O[C@H](CO)[C@@H](O)[C@H](O)[C@H]7O)[C@H]6O)C(C)(C)C5CC[C@]43C)C2[C@]1(C)O (stereo partly drawn)	x	6%	2	x	x	-0.7%	x
O=S(=O)(c1ccc(Nc2ccc(-c3ccc4c(c3)OCCO4)nn2)cc1)N1CCCC1	0	2%	10	3%	11	-9.1%	-74%[inhibitor]
Cc1ccc(S(=O)(=O)N2CCCCC2)cc1NC(=O)CCNC(=O)c1ccc([N+](=O)[O-])cc1	-1	-9%	3	x	x	1.1%	-1%[15.4 µM]
COC(=O)Cc1ccc(NC(=O)c2ccc(C(C)(C)C)cc2)cc1	-11	12%	-6	4%	1.8	2.5%	4%
O=C(O)c1ccccc1NCCO	-5	5%	6	-6%	5.9	-1.6%	14%[15.4 µM]
CC1=C(C(=O)N(C)C)CC(CC(=O)NCCCCc2ccccc2)C(=O)N1Cc1ccc(C(C)(C)C)cc1 (stereo not drawn)	x	x	0	x	x	4.9%	-47%[inhibitor]
CCn1c(SCC(=O)N2CCCC2)nnc1-c1ccco1	6	12%	1	8%	0.1	x	-24%[15.4 µM]
Cc1ccc2c(c1)C1CN(C)CCC1N2C(=O)COc1ccc(N(C)C(=O)c2ccccc2)cc1 (stereo not drawn)	6	-6%	-3	11%	0.4	x	8%[15.4 µM]
Nc1nnnn1CC(=O)N/N=C/c1ccc(-c2cccc(Cl)c2)o1	6	7%	21	25µM*	16	x	-11%[15.4 µM]
C[C@H](CCC(=O)OCc1cn(CC(=O)c2ccc(O)cc2)nn1)C1CC[C@H]2[C@@H]3CC[C@@H]4C[C@H](O)CC[C@]4(C)[C@H]3C[C@H](O)[C@]12C (stereo partly drawn)	x	-13%	11	x	x	-1.8%	x
CS(=O)(=O)c1ccc(Cl)c(NC(=O)c2cccc(Br)c2)c1	-8	6%	-6	-1%	6.8	-1.4%	-4%[15.4 µM]
CCCCCN(C(=O)NC(=O)Nc1ccc(C)cc1C)S(C)(=O)=O	4	6%	-20	18%	-0.7	-27%	-3%[15.4 µM]
CCCOc1ccc(C(CC(=O)O)NC(=O)C(c2ccccc2)c2ccccc2)cc1 (stereo not drawn)	9	-18%	20	x	x	-6.7%	-54%[inhibitor]
Cc1ccc(Sc2cc(C(=O)NCCN(C)C)c3ccccc3n2)cc1	-2	19%	-9	2%	-1.0	1.3%	0%
CC(C)(C)NS(=O)(=O)c1ccc(CCC(=O)NCc2ccccn2)cc1	2	3%	-4	5%	8.9	0.1%	-20%
O=C(Nc1cccc(Cl)c1)N1CCOCC1	-31	0%	-20	4%	1.4	-2.8%	u
CC(Sc1nnc(-c2ccc(C(C)(C)C)cc2)n1C)C(N)=O (stereo not drawn)	-8	-8%	-15	20%	1.0	-0.3%	17%
COC(=O)c1ccc(N2CCN(C)CC2)c(NC(=O)c2sc3ccccc3c2Cl)c1	x	10%	7	x	x	x	13%
COc1cc(C(=O)N2CCN=C2c2ccccc2)cc(OC)c1OC	-9	20%	-6	4%	6.7	-1.0%	2%
CN(C)c1nc2n(c(=O)n1)C(C#N)CS2 (stereo not drawn)	-2	12%	-6	3%	-2.6	-2.2%	0%
Cc1ccc2[nH]c(=O)c(C(c3nnnn3C(C)(C)C)N(Cc3ccco3)CC3CCCO3)cc2c1 (stereo not drawn)	-9	-1%	9	u	-0.8	-3.8%	-33%[inhibitor]
CCN(CC)C(=O)[C@H]1C[C@H](CC(=O)NCc2cccc(C(F)(F)F)c2)C(=O)N2CCc3c([nH]c4cc(-c5ccco5)ccc34)[C@]12C	x	-20%	-24	x	x	3.4%	x
O=C(NC1CCCC1)c1cnn2c(C(F)(F)F)cc(-c3ccc4c(c3)OCO4)nc12	-1	-5%	-8	9%	3.9	-5.1%	24%
COC(=O)c1ccc(CN2CCN(CCCc3ccccc3)C(CCO)C2)cc1 (stereo not drawn)	-13	3%	15	22%	0.6	0.3%	-36%
CCOC(=O)Cc1nc2ccccc2[nH]1	u	4%	8	1%	2.3	-0.3%	u
CCOc1ccc(N2C(=O)/C(=C/c3ccccc3)N=C2SC)cc1	-5	2%	-13	18%	-0.2	-7.1%	14%
C=CCSc1nnc(NC(=O)CCNC(=O)c2ccco2)s1	-3	-1%	11	25%	-0.9	x	0%[15.4 µM]
COc1ccc(-n2cnc3scc(-c4ccc(OC)c(OC)c4)c3c2=O)cc1	4	-8%	-4	-2%	2.4	-1.5%	26%
O=[N+]([O-])c1cccc(-n2cc3ccc([N+](=O)[O-])cc3n2)c1	18	4%	8	x	x	1.5%	8%
COc1ccc(CNC(=O)Cn2cncn2)cc1OC	7	-6%	-19	17%	-1.5	x	-11%[15.4 µM]
CN(c1ccccc1)S(=O)(=O)c1cccc(NS(=O)(=O)c2ccc(/C=C/C(=O)O)cc2)c1	-2	4%	-8	31%[activator]	3.5	x	31%
CCOc1ccc(C(C(=O)NCCC(C)C)N(CCO)C(=O)c2snc(C(N)=O)c2N)cc1 (stereo not drawn)	-9	-9%	13	10%	-1.7	x	-2%

Results in TRPV1 potentiator, for two of the compounds above:
compound | TRPV1 potentiator
CC(Sc1nnc(-c2ccc(C(C)(C)C)cc2)n1C)C(N)=O (stereo not drawn) | -8
CN(C)c1nc2n(c(=O)n1)C(C#N)CS2 (stereo not drawn) | -2

The list continues:
SMILES	TRPV1 potentiator	gsp antagonist	TRPML1 inh	Sfp inh	Menin-MLL FL inh	ClpP mod	gsp ag
Cc1cccc(S(=O)(=O)N2CCN(Cc3ccc4c(c3)OCO4)CC2)c1	-3	9%	11	16%	2.1	x	5%
Cc1c(NS(=O)(=O)c2cc(C(=O)NC(C)c3ccccc3)ccc2Cl)c(=O)n(-c2ccccc2)n1C (stereo not drawn)	7	-9%	-10	x	x	1.4%	-12%
Cc1cccc(OCC(=O)N/N=C\c2cc3c(cc2[N+](=O)[O-])OCO3)c1C	16	u	-7	25µM*	0.0	0.2%	-3%
O=C(Nc1ccc(S(=O)(=O)Nc2ncccn2)cc1)c1ccccc1Br	3	-1%	-17	11%	-0.3	-1.6%	-1%
O=C1CCc2cc(S(=O)(=O)N3CCN(c4cccc(Cl)c4)CC3)ccc2N1	0	0%	-5	21%	0.3	-0.1%	3%
COc1ccc(C2C(C(=O)NC(C)C)c3ccccc3C(=O)N2C)cc1OC (stereo not drawn)	-9	3%	-14	-2%	5.3	-14%	-15%
Cc1cccc(NC(=O)NNC(=O)COc2ccc3ccccc3c2)c1	3	-5%	5	7%	x	-5.0%	u
O=C(O)c1cc([N+](=O)[O-])ccc1NCc1ccccc1Cl	9	u	-12	4%	-0.6	6.5%	4%[15.4 µM]
COCCCNC(=O)Cn1c(=O)n(Cc2ccc(F)cc2)c(=O)c2sccc21	6	1%	-10	9%	0.7	-2.6%	1%[15.4 µM]
CCOc1ccc(S(=O)(=O)N2CCC(C(=O)OC(C)C(=O)NC3CCCCC3C)CC2)cc1 (stereo not drawn)	-5	-23%	6	x	x	-11%	-1%
COc1ccccc1CCNC(=O)C(=O)NCCC1CCCCN1S(=O)(=O)c1cccs1 (stereo not drawn)	10	-7%	7	x	x	x	24%[15.4 µM]
C[C@@H](CSc1ccccc1)CN1CC[C@H](O)CCC1=O	-11	4%	16	4%	-2.2	-3.3%&0.3%	u
CC(C)NC(=O)C(C)n1cccc1C(=O)c1ccccc1 (stereo not drawn)	-8	6%	-5	12%	2.3	-1.6%	17%
CCCN(CCC)Cc1c(C(=O)N/N=C/c2ccsc2)nnn1-c1nonc1N	-17	-23%	-3	-5%	-7.5	x	0%[15.4 µM]
COc1cccc(NC(=O)Cn2c(=O)n(-c3ccccc3)c(=O)c3sccc32)c1	21	2%	12	-8%	-2.2	-1.8%	1%
O=C(CSc1nnc2n1CCCCC2)NCc1ccccc1	x	x	9	x	x	0.8%	3%
O=S(=O)(Nc1cccc2cn[nH]c12)c1ccc(F)cc1	0	4%	13	2%	-5.3	0.7%	13%
Cn1cnnc1SCC(=O)N1CCC(Cc2ccccc2)CC1	u	-2%	-3	13%	-2.8	0.9%	u
Cn1c(=O)c2c(nc(SCC(=O)O)n2Cc2cccc(C(F)(F)F)c2)n(C)c1=O	10	-4%	1	6%	-5.3	0.8%	24%
Cc1ccccc1-c1nc(CS(=O)(=O)CC(=O)NCCCN2CCCC2)c(C)o1	12	8%	-3	-2%	4.9	-1.3%	1%
O=[N+]([O-])c1ccc(N2CCN(C(=S)NC3CCCCC3)CC2)cc1	1	-19%	3	11%	3.1	-2.4%	-5%
